Screens from PubChem BioAssay.
IL-2 act: IL-2 activation. 360,000 compounds, 0.065% hits. IL-2 activation reporter assay, cell-based qHTS; stimulated with anti-CD3/CD4/CD28 beads; in transgenic mouse T cells. activation, % (series mostly up to about 46 µM); in the data active = activation above about 50%; inconclusive = mostly about 30% to 49%; also: 0% is about no effect
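Unstimulated transgenic mouse T cells preincubated 60 min with compound, then stimulated with anti-CD3/anti-CD4-coated beads plus anti-CD28 for 18 h at 37 degrees C. IL-2 response read as EGFP and DsRed fluorescence by plate cytometry.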
PLK1 PBD block: blocks phosphopeptide binding to human PLK1 polo-box domain | Plk1 PBD binding of FITC phosphopeptide, fluorescence polarization | Potency, µM, for the others: max response, negative = inhibition, most hits filed as inhibitors | 360,000 compounds, 2.8% hits | AID 720504; also: potency is read from the fitted curve at half-maximal effect; series mostly up to about 57 µM; % is scaled to controls: 0 for no effect and ±100 for the full control effect; nearly all actives have a fitted effect of over 65% in size
Abeta yeast res: compounds reversing amyloid beta toxicity in yeast; yeast expressing A-beta42, growth rescue, OD600, 48 h; response scale: 0% DMSO, 100% iron-clioquinol control; Potency, µM (series often up to 46.1 µM), for the others: top-dose growth rescue, most hits filed as activators; 410,000 compounds, 0.063% hits; AID 1347071; also: potency is read from the fitted curve at half-maximal effect; nearly all actives have a fitted effect of over 55% in size
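Yeast growth medium received pinned compounds, then yeast cells expressing toxic A-beta were added; plates incubated at 30 C for 48 hr. Growth read as absorbance at 600 nm, normalized to DMSO and equimolar FeCl3 plus clioquinol controls.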
EPAC1 antag: EPAC1 (human) antagonism | O95398 | EPAC1 GEF assay, Rap1b-BODIPY-GDP exchange fluorescence | Potency, µM (series often up to 115 µM), for inactives: at the highest dose activity change, negative = inhibition, actives largely listed as inhibitors | 360,000 compounds, 0.14% hits | AID 720709;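 also: potency is read from the fitted curve at half-maximal effect; plate controls were vehicle for no effect and positive control for full effect; nearly all actives have a fitted effect of over 50% in size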
EPAC1 agonist: agonists of human EPAC1. 360,000 compounds, 0.073% hits. O95398. Potency, µM (doses to about 154 µM), for the others: at the top dose activation, hits mostly activators. EPAC1 agonist qHTS, biochemical assay; response scale: 100% = response to 6.5 mM cAMP; also: potency is read from the fitted curve at half-maximal effect; nearly all actives have a fitted effect of over 60% in size
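EPAC1 100 nM, Rap1B–BODIPY-GDP 250 nM, unlabeled GDP 50 uM; compound titration; 5 min RT; kinetic read ex480/em540 at 5-min intervals ×30 min; data normalized to 6.5 mM cAMP agonist control.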
WRN helicase inh: blocks human WRN helicase; Q14191; WRN helicase unwinding, fluorescent forked duplex, kinetic; Potency, µM (doses to about 114 µM), without a hit: top-dose activity change, negative = inhibition, hits mostly inhibitors; 360,000 compounds, 0.46% hits; also: potency is read from the fitted curve at half-maximal effect; % is scaled to controls: 0 for no effect and ±100 for the full control effect; nearly all actives have a fitted effect of over 55% in size
Target sequence (Q14191 whole entry, looked up): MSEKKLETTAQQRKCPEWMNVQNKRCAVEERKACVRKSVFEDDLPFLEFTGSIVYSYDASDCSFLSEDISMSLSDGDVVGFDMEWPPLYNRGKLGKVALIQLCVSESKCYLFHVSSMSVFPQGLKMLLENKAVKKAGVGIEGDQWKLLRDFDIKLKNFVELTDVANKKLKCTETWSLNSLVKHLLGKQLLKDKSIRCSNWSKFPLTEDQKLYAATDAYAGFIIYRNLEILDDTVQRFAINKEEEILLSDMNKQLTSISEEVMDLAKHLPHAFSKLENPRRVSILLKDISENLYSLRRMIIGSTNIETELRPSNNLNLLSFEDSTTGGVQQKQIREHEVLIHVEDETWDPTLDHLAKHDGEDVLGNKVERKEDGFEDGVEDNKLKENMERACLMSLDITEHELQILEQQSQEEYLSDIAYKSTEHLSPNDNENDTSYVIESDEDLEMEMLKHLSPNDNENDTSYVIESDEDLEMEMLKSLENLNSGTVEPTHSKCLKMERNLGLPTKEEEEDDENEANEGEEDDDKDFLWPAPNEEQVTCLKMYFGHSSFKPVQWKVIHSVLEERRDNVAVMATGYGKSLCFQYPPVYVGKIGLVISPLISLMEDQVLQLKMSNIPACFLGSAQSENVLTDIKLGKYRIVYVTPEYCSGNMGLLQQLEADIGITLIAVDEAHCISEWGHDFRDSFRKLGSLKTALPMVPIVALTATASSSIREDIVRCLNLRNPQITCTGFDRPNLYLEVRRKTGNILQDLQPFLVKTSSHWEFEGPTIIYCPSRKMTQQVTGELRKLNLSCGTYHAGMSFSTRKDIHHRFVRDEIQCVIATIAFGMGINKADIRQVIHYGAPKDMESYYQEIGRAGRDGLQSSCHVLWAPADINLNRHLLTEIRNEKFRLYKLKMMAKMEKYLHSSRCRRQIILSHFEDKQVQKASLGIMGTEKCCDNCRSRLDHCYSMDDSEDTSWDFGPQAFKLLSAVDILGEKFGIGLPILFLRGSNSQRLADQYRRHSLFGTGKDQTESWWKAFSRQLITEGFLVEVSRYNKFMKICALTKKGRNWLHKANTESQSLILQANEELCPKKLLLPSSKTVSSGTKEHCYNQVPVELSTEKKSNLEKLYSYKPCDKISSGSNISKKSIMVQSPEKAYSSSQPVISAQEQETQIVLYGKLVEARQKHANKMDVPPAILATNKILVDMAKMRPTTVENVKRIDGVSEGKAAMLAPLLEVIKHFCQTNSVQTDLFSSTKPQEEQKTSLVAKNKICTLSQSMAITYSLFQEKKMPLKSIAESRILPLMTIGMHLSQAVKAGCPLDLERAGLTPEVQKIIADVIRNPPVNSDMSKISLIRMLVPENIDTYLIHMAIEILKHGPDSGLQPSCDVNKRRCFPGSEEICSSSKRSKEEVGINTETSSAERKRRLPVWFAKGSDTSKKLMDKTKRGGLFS
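Kinetic red-fluorescence monitoring (525/598 nm) tracks WRN helicase activity after 100 nM fluorophore-quencher forked duplex and 2 mM ATP are added to 20 nM enzyme pretreated 15 min at room temperature with compound.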
FUS suppressor: rescues growth of FUS-expressing yeast; S. cerevisiae FUS-expressing, growth rescue, OD600, 24 h; Potency, µM (series often up to 76.6 µM), inactives show at the top dose growth rescue (activation), actives largely listed as activators; 390,000 compounds, 0.24% hits; AID 1347120;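 also: potency is read from the fitted curve at half-maximal effect; plate controls were DMSO vehicle for no effect and reference control for full effect; nearly all actives have a fitted effect of over 55% in size; some results filed as inactive show a strong effect at the top dose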
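Yeast expressing FUS under galactose induction, OD 0.005 in 2% galactose medium; compounds in a dilution series, 24 h at 30C. Growth rescue by absorbance at 600 nm; CP55940 positive control, DMSO negative.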
* hit, by the source's call; u = inconclusive; x = not tested or not shown; & = joins results of further samples; [ ] = another dose, or the depositor's remark. Unless noted, calls follow the shape of the dose curve; as a rule, active = well fitted curve in the direction sought with a large enough effect; inconclusive = small, poorly fitted or top-dose-only effect, or another doubt; inactive = no such curve, though single readings can be large; an effect the other way counts as inactive or inconclusive.

#	mol	IL-2 act	PLK1 PBD block	Abeta yeast res	EPAC1 antag	EPAC1 agonist	WRN helicase inh	FUS suppressor
1	CC1(C)C(=O)Nc2ccccc2N1C(=O)COc1ccc(C#N)cc1	-0.2	-4%	-1%	6%	8%	-7%	45%
2	C=CCn1c(CCNC(=O)c2ccccc2F)nnc1SCC(=O)Nc1ccccc1F	2.0	-4%	20%	2%	3%	-30%	5%
3	CCOCCCn1c(SC(C)C(=O)NCC2CCCO2)nc2sc(C)c(C)c2c1=O (stereo not drawn)	2.8	-3%	-15%	3%	4%	-19%	18%
4	COC(=O)/C=C/c1ccc(OC(=O)OC)c(OC(=O)OC)c1	-1.2	-10%	1%	1%	7%	4%	-22%
5	O=C1Nc2ccccc2-n2nnnc2C1N1CCN(C(=O)C2CCCO2)CC1 (stereo not drawn)	-0.5	-6%	-3%	-1%	-5%	3%	-7%
6	CC(=O)NCCC(=O)Nc1nc(-c2c[nH]c3ccccc23)cs1	0.0	-22%	-2%	-2%	-4%	1%	u
7	CC(C)NC(=O)NC(=O)COC(=O)c1c2c(nc3ccccc13)CCC2	-1.3	-7%	8%	-9%	-10%	-21%	u
8	Cc1cccc(N2CC(C(=O)Nc3nnc(SCC(=O)N4CCOCC4)s3)CC2=O)c1 (stereo not drawn)	-1.4	u	4%	-4%	-11%	-9%[11.6 µM]	18µM*
9	O=S(=O)(Nc1ccccc1F)c1cccc(NC(=S)NCCN2CCOCC2)c1	-0.5	0.95µM*	-26%	4%	12%	-27%[11.6 µM]	-17%
10	CC1CCCCC1NC(=O)CCc1nc2sc3c(c2c(=O)[nH]1)CCCC3 (stereo not drawn)	1.2	-8%	-9%	-17%	-4%	-34%	u
11	COc1cc2c(cc1OC)CN(C(=O)c1ccncc1)CC2	1.1	-5%	0%	-20%	8%	7%	-29%
12	COc1ccc(CCNc2ncnc3sc(C)cc23)cc1OC	-0.7	u	-1%	15%	2%	-19%	16%
13	Cc1ccc(NC(=O)c2c3c(nc4ccccc24)CCC3)cc1	0.0	8%	-11%	7%	1%	-6%	-3%
14	CNC(=O)c1c[nH]n2c(=O)c(Cc3ccccc3F)c(C)nc12	-3.0	-14%	-12%	-7%	-9%	-4%	-6%
15	O=C(Nc1ccccc1Cl)c1ccccc1S(=O)(=O)c1ccccc1[N+](=O)[O-]	0.8	-5%	-1%	-20%	5%	-2%	x
16	CC(C)CN1CCC(CN2CCNC(=O)C2=O)CC1	0.4	1%	-1%	-4%	5%	-1%	-12%
17	COCC(=O)Nc1sc2c(c1C(=O)OC)CCC(C)C2 (stereo not drawn)	-2.5	-5%	-19%	0%	12%	-5%	u
18	CC(C)CC(=O)Nc1ncc([N+](=O)[O-])s1	-0.9	11µM*	20%	-6%	2%	-7%[11.6 µM]	13%
19	O=C(COc1ccc(Br)cc1)Nc1nc(-c2cccnc2)cs1	-1.8	-16%	22%	-12%	-1%	-13%	-2%
20	O=C(Cc1cccs1)Nc1ccc(S(=O)(=O)Nc2ncccn2)cc1	0.4	-19%	-9%	-11%	1%	u	10µM*
21	CCOc1ccccc1CNC(=O)c1nn(CC)cc1[N+](=O)[O-]	-0.5	-6%	8%	11%	6%	6%	x
22	CCc1ccc(NC(=O)c2noc(C(C)C)c2[N+](=O)[O-])cc1	-0.3	-20%	-28%	-19%	7%	-5%	-10%
23	COCCn1c(=O)[nH]c2cc(C(=O)N3CCN(c4ccccc4F)CC3)ccc2c1=O	0.7	-2%	10%	-6%	8%	8%	13%
24	CC(NC(=O)c1cccc2c1Oc1ccccc1S2)C(=O)O (stereo not drawn)	1.6	-27%	-18%	-19%	-14%	-4%	-19%
25	Cc1cccc(NC(=O)C2CCCCN2S(=O)(=O)c2ccccc2)c1C (stereo not drawn)	-1.0	-6%	-12%	0%	2%	15%	3%
26	Cc1nc2c(C(=O)NCCC(C)C)c[nH]n2c(=O)c1Cl	1.0	u	1%	u	-12%	-15%	x
27	O=C(CN1CCOCC1)Nc1nc(-c2ccccc2Cl)cs1	-3.2	-13%	-6%	20%	5%	1%	-32%
28	CC(/C=C/c1ccccc1)=N/NC(=O)c1cc([N+](=O)[O-])cc([N+](=O)[O-])c1	-0.2	-11%	-5%	u	1%	-5%	x
29	Cc1cccc(Nc2nc(-c3ccccc3)c(C(=O)Nc3cccnc3)s2)c1	-3.9	-6%	3%	u	5%	-25%[57.1 µM]	23%
30	CC(C)CCN1CCC(CN2CCNC(=O)C2=O)CC1	-0.6	-3%	3%	-8%	6%	-4%	-14%

Look-ups from above:
EPAC1 antag, entry 22 → -19%
EPAC1 agonist, entry 1 → 8%
Abeta yeast res, entry 20 → -9%
Abeta yeast res, entry 19 → 22%
WRN helicase inh, entry 17 → -5%

Part of the list above in a different format:
3: CCOCCCn1c(SC(C)C(=O)NCC2CCCO2)nc2sc(C)c(C)c2c1=O (stereo not drawn)
  IL-2 act = 2.8 | PLK1 PBD block = -3% | Abeta yeast res = -15% | EPAC1 antag = 3% | EPAC1 agonist = 4% | WRN helicase inh = -19% | FUS suppressor = 18%
4: COC(=O)/C=C/c1ccc(OC(=O)OC)c(OC(=O)OC)c1
  IL-2 act = -1.2 | PLK1 PBD block = -10% | Abeta yeast res = 1% | EPAC1 antag = 1% | EPAC1 agonist = 7% | WRN helicase inh = 4% | FUS suppressor = -22%

Three entries already listed, arranged by the number in WRN helicase inh, smallest number first.
#	smiles	WRN helicase inh
15	O=C(Nc1ccccc1Cl)c1ccccc1S(=O)(=O)c1ccccc1[N+](=O)[O-]	-2%
16	CC(C)CN1CCC(CN2CCNC(=O)C2=O)CC1	-1%
5	O=C1Nc2ccccc2-n2nnnc2C1N1CCN(C(=O)C2CCCO2)CC1 (stereo not drawn)	3%

New compounds follow
#	mol	IL-2 act	PLK1 PBD block	Abeta yeast res	EPAC1 antag	EPAC1 agonist	WRN helicase inh	FUS suppressor
31	Cc1cc(S(=O)(=O)N2CCN(CC(=O)NCCc3cccs3)CC2)ccc1Br	0.6	2%	-7%	12%	2%	5%	28%
32	CC(C)C(NC(=O)c1c(F)cccc1F)C(=O)NNC(=O)c1ccccc1 (stereo not drawn)	-0.5	-9%	-6%	18%	6%	5%	-6%
33	COc1ccc(NC(=O)COC(=O)c2c3c(nc4ccccc24)CCCC3)cc1	-3.2	-11%	-46%[inhibitor]	-12%	22%	-11%	u
34	CCCCC(=O)Nc1ncc([N+](=O)[O-])s1	0.8	-8%	21%	6%	5%	9%	-4%
35	COc1ccc(Cl)cc1NC(=O)COC(=O)C1CC1	0.3	-10%	u	u	4%	0%	-26%
36	CC1CCC(NCCNC(=O)c2ccco2)CC1 (stereo not drawn)	1.7	3%	-10%	2%	0%	-3%	9%
37	COC(=O)c1sc(SC)c2c1CC(C)(C)C/C2=N/O	-1.7	2%	-7%	9%	-11%	7%	-15%
38	O=C(CSc1nccc(=O)[nH]1)NN(c1ccccc1)c1ccccc1	-1.2	-2%	5%	-9%	-2%	2%	0%
39	CC1(C)C(=O)Nc2ccccc2N1C(=O)COc1ccccc1C#N	1.0	-18%	7%	-19%	1%	-3%[11.6 µM]	25%
40	COc1ccc(C(=O)c2sc(Nc3ccccc3)nc2N)cc1	-3.2	-3%	1%&-11%	-11%	2%	1%	-9%&-2%
41	O=C(COC(=O)c1cc(S(=O)(=O)N2CCOCC2)ccc1F)c1ccc[nH]1	-0.4	-7%	-6%	-3%	-5%	0%	29%
42	COc1c(Br)cc2c(C)c(C(=O)O)oc2c1Br	0.0	0%	-2%	-11%	-7%	u	x
43	Cc1cccc(NC(=O)CCc2nc3sc4c(c3c(=O)[nH]2)CCCC4)n1	-5.8	-20%	-2%	-12%	-2%	u	u
44	COCCN(CCOC)S(=O)(=O)c1ccc(C(=O)Nc2sc3c(c2C(N)=O)CCCCC3)cc1	-1.9	u	1%	-5%	0%	-8%	x
45	C=CCN1C(=O)c2ccc(C(=O)N3CCN(S(=O)(=O)c4cccc(F)c4)CC3)cc2C1=O	3.7	-3%	-21%	-9%	1%	-4%	1%
46	O=C1Nc2ccccc2-n2nnnc2C1N1CCCN(Cc2ccc(F)cc2)CC1 (stereo not drawn)	0.1	-18%	0%	-15%	u	0%	2%
47	COc1ccc(CC2(CO)CCN(Cc3ccncc3)CC2)cc1	1.7	4%	-6%	-2%	-1%	-6%	-9%
48	O=C(O)c1cc(-c2ccco2)nn1-c1cccc(Cl)c1	-1.4	u	-7%	-3%	7%	u	6%
49	COc1ccc(CC2(CO)CCN(Cc3cnn(-c4ccc(F)cc4)c3)CC2)cc1	0.0	-9%	1%	-20%	12%	-11%	-2%
50	CCOc1ccc(OCCNC(=O)C(NC(=O)c2c(F)cccc2F)C(C)C)cc1 (stereo not drawn)	2.1	-8%	5%	-15%	-5%	3%	9%
51	Cc1ccccc1Nc1nc(-c2ccccc2)c(C(=O)Nc2cccnc2)s1	-2.6	30µM*	-3%	-10%	9%	-6%	27%
52	CCCc1cc(=O)[nH]c(SCC(=O)NC2(C#N)CCCCC2)n1	0.0	-7%	-8%	-4%	-8%	-5%	-7%
53	O=C(CSc1ncnc2c1cnn2-c1ccc(F)cc1)NC1CCCC1	0.1	-6%	14%	-3%	-7%	-6%	-4%
54	COc1ccc(OC)c(NC(=O)CSc2ncnc3sc(C)cc23)c1	-0.7	-26%	-6%	u	-13%	u	28%
55	CCn1c(COc2ccc(C)cc2)nnc1SCC(=O)NNC(=O)c1ccc(OC)cc1	-1.0	-5%	10%	-8%	5%	4%	-12%
56	Cc1cc(C(F)(F)F)nc(SCc2ccc(C(=O)O)o2)n1	-3.4	-26%	-1%	-9%	-8%	-10%[11.6 µM]	3%

Some of these compounds in order of number of heavy atoms, high to low.
#	mol	IL-2 act	PLK1 PBD block	Abeta yeast res	EPAC1 antag	EPAC1 agonist	WRN helicase inh	FUS suppressor
43	Cc1cccc(NC(=O)CCc2nc3sc4c(c3c(=O)[nH]2)CCCC4)n1	-5.8	-20%	-2%	-12%	-2%	u	u
37	COC(=O)c1sc(SC)c2c1CC(C)(C)C/C2=N/O	-1.7	2%	-7%	9%	-11%	7%	-15%
34	CCCCC(=O)Nc1ncc([N+](=O)[O-])s1	0.8	-8%	21%	6%	5%	9%	-4%

These rows are one share of the data. The share of hits here may be higher or lower than overall.
